Source: PubChem
KCNQ2 pot: potentiators of rat KCNQ2 potassium channel; 310,000 tested, 0.54% active; Potassium voltage-gated channel subfamily KQT member 2 (Rattus norvegicus), O88943; AID 2239, 2010; B-score at 10 µM; CHO-K1 KCNQ2, FluxOR thallium flux fluorescence; hits give high values;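 active = fluorescence ratio B-score at least 3 SD of library B-scores, with initial fluorescence B-score within 3 SD, cut at about 5.3 in these data; same plate scores as AID 2156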;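 also: B-score of peak minus minimum over baseline fluorescence ratio after K+ and Tl+ stimulus; positive B-score means potentiation of KCNQ2 with more thallium influx and brighter signal; only the inactives scoring about 0 or higher are listed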
Target sequence (O88943 whole entry, looked up): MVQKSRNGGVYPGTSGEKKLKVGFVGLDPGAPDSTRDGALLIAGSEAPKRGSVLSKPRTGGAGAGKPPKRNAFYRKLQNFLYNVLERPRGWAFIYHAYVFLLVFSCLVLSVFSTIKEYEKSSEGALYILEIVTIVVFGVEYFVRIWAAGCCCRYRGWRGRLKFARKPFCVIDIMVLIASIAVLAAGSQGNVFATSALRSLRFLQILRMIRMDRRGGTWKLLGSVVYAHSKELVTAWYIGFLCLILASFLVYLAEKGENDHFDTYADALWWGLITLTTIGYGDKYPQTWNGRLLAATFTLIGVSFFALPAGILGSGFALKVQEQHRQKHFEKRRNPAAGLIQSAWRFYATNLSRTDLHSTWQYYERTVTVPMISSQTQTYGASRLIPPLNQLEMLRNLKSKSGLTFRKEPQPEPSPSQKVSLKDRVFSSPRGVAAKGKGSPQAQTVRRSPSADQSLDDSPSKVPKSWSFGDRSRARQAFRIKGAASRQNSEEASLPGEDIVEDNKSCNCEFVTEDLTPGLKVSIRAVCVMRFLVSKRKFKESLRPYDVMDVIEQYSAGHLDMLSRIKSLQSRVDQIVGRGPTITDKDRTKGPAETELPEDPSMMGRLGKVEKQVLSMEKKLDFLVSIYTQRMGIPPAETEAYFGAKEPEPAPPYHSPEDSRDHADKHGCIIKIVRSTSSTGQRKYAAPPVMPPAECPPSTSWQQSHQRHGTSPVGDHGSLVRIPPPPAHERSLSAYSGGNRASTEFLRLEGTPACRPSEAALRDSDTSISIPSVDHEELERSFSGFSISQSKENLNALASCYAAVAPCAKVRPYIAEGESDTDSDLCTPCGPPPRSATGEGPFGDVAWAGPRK
KCNQ2 pot baseline: recorded beside KCNQ2 pot, whose call it bears; B-score; compound at 10 µM; measured here: initial fluorescence intensity artifact check;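 brightness before thallium and not channel activity; 0 = typical well and far values either way flag optical interference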
Active calls of the source: *; nt = no result given. These rows are one share of the data; rates above refer to the full screens.

SMILES	KCNQ2 pot	KCNQ2 pot baseline
O=C(O)CCC(=O)NC(c1ccccc1)c1ccccc1	0.56	0.06
CCOC(=O)c1ccc(NC(=O)N2CCCCCC2)cc1	1.3	3.9
COc1ccc(OCC(O)Cn2c(Nc3ccccc3)nc3c2c(=O)n(C)c(=O)n3C)cc1 (stereo not given)	1.1	0.67
CCOC(=O)CSc1ccc2nnc(CCNS(=O)(=O)c3ccccc3)n2n1	0.77	-0.37
CSc1nnc(NC(=O)CCc2ccccc2)s1	0.15	-0.96
CS(=O)(=O)N1CCN(c2ccc([N+](=O)[O-])c(N3CCOCC3)c2)CC1	0.03	0.48
COC(=O)c1sc(S(=O)(=O)N2CCC(C(N)=O)CC2)c(C(=O)OC)c1C	1.9	-0.06
O=C(O)C1(Cc2nc3ccccc3[nH]2)CCCC1	0.23	1.7
NC(=O)c1c(NC(=O)c2ccccc2F)sc2c1CCCC2	1.8	1.3
Cc1cc2c(c(Sc3ccccc3)n1)C(=O)OC2	0.01	1.5
Cc1ccc(C(=O)/C=C/Nc2ccccc2C(N)=O)o1	1.7	0.01
C[C@@H](O)C1NC(=O)[C@H](CCCCN)NC(=O)c2cc([N+](=O)[O-])cc(I)c2NCCC[C@@H](C(N)=O)NC1=O (stereo not given in full)	1.3	1.1
C=CCn1c(SCC(=O)Nc2cc(C)on2)nc2sc(C)c(C)c2c1=O	0.16	2.5
COc1cc(C(=O)Nc2nc(OC)c(-c3ccccc3)c(OC)n2)cc(OC)c1OC	0.82	-1.9
O=C(NCc1ccco1)C1CCCCN1S(=O)(=O)c1ccc(F)cc1 (stereo not given)	1.2	-1.4
CC1=CC(=O)C=CC1(C)C(Cl)Cl (stereo not given)	0.27	1.2
CCCN(C(=O)c1cn(C)c(=O)c2ccccc12)c1ccccc1C	0.79	1.6
CC1CC(C)(C)NC(=S)O1 (stereo not given)	1.3	nt
O=C(c1ccco1)c1cc2c(ccc3ccccc32)oc1=O	0.06	0.73
C/C=C/c1ccc(OCC(=O)OCC2=C(C(=O)OCC)C(C)NC(=O)N2)c(OC)c1 (stereo not given)	0.72	0.22
COCCNC(=O)CCN1N=C(c2ccccc2)CCC1=O	0.97	-0.01
COC(=O)c1ccc2nc(C(F)(F)F)[nH]c2c1	0.02	0.12
Cc1cc(NC(=O)C2CCCCC2)nc2c1c(=O)oc1ccccc12	0.73	0.69
Cc1cc(C)n2nc(SCCC(=O)NCCc3ccccc3)nc2n1	1.2	-0.53
NC(=O)c1cc(S(=O)(=O)NCc2cccc(Br)c2)cs1	1.3	0

16 compounds from above, sorted by SMILES length, falling.
SMILES	KCNQ2 pot	KCNQ2 pot baseline
C[C@@H](O)C1NC(=O)[C@H](CCCCN)NC(=O)c2cc([N+](=O)[O-])cc(I)c2NCCC[C@@H](C(N)=O)NC1=O (stereo not given in full)	1.3	1.1
C/C=C/c1ccc(OCC(=O)OCC2=C(C(=O)OCC)C(C)NC(=O)N2)c(OC)c1 (stereo not given)	0.72	0.22
CS(=O)(=O)N1CCN(c2ccc([N+](=O)[O-])c(N3CCOCC3)c2)CC1	0.03	0.48
COc1cc(C(=O)Nc2nc(OC)c(-c3ccccc3)c(OC)n2)cc(OC)c1OC	0.82	-1.9
C=CCn1c(SCC(=O)Nc2cc(C)on2)nc2sc(C)c(C)c2c1=O	0.16	2.5
O=C(NCc1ccco1)C1CCCCN1S(=O)(=O)c1ccc(F)cc1 (stereo not given)	1.2	-1.4
CCCN(C(=O)c1cn(C)c(=O)c2ccccc12)c1ccccc1C	0.79	1.6
NC(=O)c1cc(S(=O)(=O)NCc2cccc(Br)c2)cs1	1.3	0
O=C(c1ccco1)c1cc2c(ccc3ccccc32)oc1=O	0.06	0.73
Cc1ccc(C(=O)/C=C/Nc2ccccc2C(N)=O)o1	1.7	0.01
COC(=O)c1ccc2nc(C(F)(F)F)[nH]c2c1	0.02	0.12
O=C(O)C1(Cc2nc3ccccc3[nH]2)CCCC1	0.23	1.7
Cc1cc2c(c(Sc3ccccc3)n1)C(=O)OC2	0.01	1.5
CSc1nnc(NC(=O)CCc2ccccc2)s1	0.15	-0.96
CC1=CC(=O)C=CC1(C)C(Cl)Cl (stereo not given)	0.27	1.2
CC1CC(C)(C)NC(=S)O1 (stereo not given)	1.3	nt

(next part)
SMILES	KCNQ2 pot	KCNQ2 pot baseline
Cc1ccc(Cl)cc1NC(=O)c1cc2ccccc2cc1O	0.04	-0.22
CSc1nc(Nc2ccc(Cl)cc2)c(C#N)c(=O)[nH]1	4.8	-1.4
O=C(CN1CCN(CC(=O)Nc2ccccn2)CC1)Nc1ccccn1	0.03	-0.92
C=CCNC(=S)Nc1cccc2ccccc12	0.01	-3
c1ccc(-c2nc(-c3cccs3)[nH]c2-c2ccccc2)cc1	0.18	-0.12
O=c1[nH]n2c(=O)c3c([nH]c2c1N=Nc1ccccc1)CCC3	1.9	-1.4
O=C(O)c1ccc2nnn(O)c2c1	2.2	-0.41
Cc1ccsc1C(C(=O)NC(C)(C)C)N(C(=O)c1csnn1)c1ccccc1 (stereo not given)	0.01	-0.57
Nc1nc(-c2ccco2)c(-c2ccco2)s1	1.5	-5.1
O=C(NCCc1ccc(F)cc1)c1cccs1	0.23	-0.07
OCCN1C[C@H](O)[C@@H](O)[C@H](O)[C@H]1CO	0.8	0.02
CCCCNC(=O)C1CC(c2cccc(F)c2)=NO1 (stereo not given)	1.1	1.1
O=S(=O)(c1ccc(Cl)c(S(=O)(=O)N2CCCC2)c1)N1CCCC1	0.02	-0.82
C/C(=N\Nc1cc(N2CCOCC2)nc(C)n1)c1ccc(F)cc1	0.03	0.12
CC1CCN(c2ccc3nnc(CCC(=O)N4CCN(c5ccccc5F)CC4)n3n2)CC1	4	0.63
CC1CCCN(C(=O)C(=O)Nc2ccc3nc4n(c(=O)c3c2)CCCCC4)C1 (stereo not given)	0.04	-0.07
COc1ccc(-c2nn(-c3ccccc3)cc2C(=O)OCC(=O)c2ccc(C)c([N+](=O)[O-])c2)cc1	0.02	0.53
CN(C)c1nc(C(=O)NN)nc(N(C)C)n1	0.49	0.14
COc1cc(OC)cc(C(=O)Nc2ccc(NC(=O)c3ccco3)c(C)c2)c1	1.3	-3.3
COC(=O)C1=C(C)OC(N)=C(C#N)C1c1cc(OC)c(OCC(N)=O)cc1Cl (stereo not given)	0.27	-1.5
COc1ccc(C(=O)c2ccc(OC)c(OC)c2)cc1	1.2	0.11
Cc1nnc2ccc(-c3cccc(NC(=O)c4ccc(Br)o4)c3)nn12	0.06	-1.6
CC(C)(C)c1ccc(-c2nc(-c3ccncc3)no2)cc1	7*	-1.1*
Cc1ccc(C(C)C)cc1S(=O)(=O)Nc1cccnc1	0.86	0.33
COc1ccc(/C=C(\C#N)C(=O)OCCNC(=O)c2ccncc2)cc1	0.42	-2.1

Single records, as listed above. Screens in order: KCNQ2 pot	KCNQ2 pot baseline
Shown for Cc1ccc(C(C)C)cc1S(=O)(=O)Nc1cccnc1 : 0.86	0.33
Shown for COc1ccc(/C=C(\C#N)C(=O)OCCNC(=O)c2ccncc2)cc1 : 0.42	-2.1

Going on with the list:
SMILES	KCNQ2 pot	KCNQ2 pot baseline
O=C(CN1CCN(C/C=C/c2ccccc2)CC1)Nc1ccc(F)cc1F	1.4	-0.73
CCCCN(C(=O)CN1C(=O)C2CCCCC2C1=O)c1c(N)n(Cc2ccccc2)c(=O)[nH]c1=O (stereo not given)	0.3	0.54
COC(=O)c1ccc(CN2C(=O)C3CCCCC3C2=O)o1 (stereo not given)	1.1	1.3
C[C@@H](CO)NC(=O)c1ccc2c3n(nc2c1)-c1ccccc1CO3	1.3	-0.05
NS(=O)(=O)c1cccc(NC(=O)COC(=O)Cn2cnc3ccccc32)c1	0.85	-1.2
COc1ccc(C(=O)NC2CCCCC2)cc1S(=O)(=O)N1CCCC1	0.52	-3.2
CCOC(=O)N1CCN(S(=O)(=O)c2ccc(OC)c(Cl)c2Cl)CC1	0.11	1.9
COc1ccccc1NC(=O)COc1ccccc1	1.1	-1.2
Cc1ccc(-c2nc3cccnc3s2)cc1NS(C)(=O)=O	0.22	-1.5
COc1ccc(-c2nc(C(N)=O)c3[nH]c(=O)n(-c4cccc(C)c4)c3n2)c(OC)c1	0.38	0.18
O=C(C1=C(O)C(=O)N(CCN2CCOCC2)C1c1cccs1)c1cc2ccccc2o1 (stereo not given)	0.02	-2.2
CN(CC(=O)NCc1ccncc1)S(=O)(=O)c1ccc(F)cc1	0.15	0.51
O=c1oc(-c2cccs2)nc2sc3c(c12)CCCCC3	0.02	0.87
Cc1ccc(C(=O)CSc2nc(C)cc(=O)[nH]2)cc1	0.74	-1.9
O=C(CC1CS(=O)(=O)CC1CC(=O)Oc1ccccc1F)Oc1ccccc1F (stereo not given)	0.49	-1.1
Cc1ccc(S(=O)(=O)c2nc(S(C)(=O)=O)sc2N2CC(C)OC(C)C2)cc1 (stereo not given)	0.68	-0.65
CC(c1nnc(Sc2nnnn2-c2ccccc2)n1-c1ccc(F)cc1)N(C)C (stereo not given)	0.05	-0.03
Cc1sc2ncnc(OCC(=O)N3CCN(S(=O)(=O)c4ccccc4)CC3)c2c1C	1.3	3.1
COc1ccc(-c2cc(C(F)(F)F)c(C#N)c(SCC(=O)O)n2)cc1OC	0.62	1.3
COc1ccc(S(=O)(=O)N2CCCN(C)CC2)cc1	0.54	-0.05
O=S(=O)(NCCc1csc(-c2cccnc2)n1)c1cc(F)ccc1F	0.86	1.3
CCOCC(=O)N1CCC(Cc2ccccc2)CC1	0.46	0.02
Cc1ccc(S(=O)(=O)N2CCOC2CNC(=O)C(=O)NCc2ccc3c(c2)OCO3)cc1 (stereo not given)	1.4	-2
CC(=O)C1=C(O)C(=O)N(CCc2c[nH]c3ccccc23)C1c1cccc(O)c1 (stereo not given)	0.62	-0.53
CCn1ncc(/C=C/C(=O)NCc2cn(C)nc2C)c1C	0.46	0.71

(list continues)
SMILES	KCNQ2 pot	KCNQ2 pot baseline
CN(CCC#N)C(=O)COC(=O)/C=C/c1cccs1	0.91	2
CCC(C(=O)Nc1cccnc1)c1ccccc1 (stereo not given)	0.01	-0.77
O=C(O)c1cccc(Nc2ncnc3ccccc23)c1	1.1	-0.26
O=c1[nH]ncc2c3ccccc3n(Cc3cccc(Cl)c3)c12	0.4	2
C/C(=N\N=C\c1cccc(F)c1)c1nnn(-c2nonc2N)c1C	1.6	2.3
Cc1ccc(/C=C/C(=O)N2CCN(S(=O)(=O)c3ccc(C)c(C)c3)CC2)o1	2	0.32
O=C(Nc1ccc(C(F)(F)F)cc1)c1ccccc1Br	0.16	2.9
Cc1cccc(C)c1NC(=O)C(C)Sc1n[nH]c(-c2ccncc2)n1 (stereo not given)	0.46	0.38
COc1ccc(CCNc2c(C=O)c(=O)[nH]c3ccccc23)cc1OC	1.3	2.3
Cc1cccc(C)c1NC(=O)CNC(=O)c1ccc2nc[nH]c2c1	0.29	0.8
CC(C)CNC(=S)Nc1ccccc1F	1	1.3
CCOC(=O)C(=O)NCC(c1cccs1)S(=O)(=O)c1ccc(Cl)cc1 (stereo not given)	0.01	-1.2
CCOC(=O)C1CCCN(C(=O)CCc2nnc(-c3ccc(C(C)=O)s3)o2)C1 (stereo not given)	0.08	-1.1
O=C(Cn1c(=O)c2cccn2c2ccc(F)cc21)N1CCN(c2ccc(F)cc2)CC1	2	0.95
O=C(COC(=O)CCC(=O)c1ccccc1)Nc1nnc(-c2ccccc2)o1	2.6	-1.6
O=C(CCc1nnc(Cc2ccc3c(c2)OCO3)o1)NC(c1ccccn1)C(F)(F)F (stereo not given)	2	0.19
Cc1cc(C)nc(SCc2cn3ccccc3n2)n1	0.65	1.4
CCOc1ccc(N2CC(C(=O)Nc3ccccn3)CC2=O)cc1 (stereo not given)	0.1	-0.29
Cc1c(C)c2ccc(OCC(=O)N3CC[C@@]4(O)CCCC[C@H]4C3)c(C)c2oc1=O	1	-0.44
Cc1ccc(C)c(CN2CCC(CNC(=O)Nc3cccc(Cl)c3C)CC2)c1	5.3*	1.1*
CC(C)C(=O)Nc1cccc(NC(=S)NC(=O)c2ccccc2Cl)c1	0.14	0.35
Cc1cc(N2C(=O)C(=O)/C(=C(/O)c3ccc(F)cc3)C2c2cccc(Br)c2)no1 (stereo not given)	0.99	-1.8
COc1ccc(F)cc1S(=O)(=O)NCCN1CCOCC1	0.15	-1.2
O=C1c2ccccc2C(=O)N1CCCCSc1nnc2ccccn12	0.61	-0.79
Cn1c(SCC(=O)NC2CC2)nnc1C1CC1	0.06	-0.4

The results go on:
SMILES	KCNQ2 pot	KCNQ2 pot baseline
COC(=O)c1sccc1NC(=O)CC1C(=O)NCCN1C(=O)Nc1ccc(F)cc1F (stereo not given)	1.4	0.76
CSc1nc(-c2ccc(C)cc2)nc(C(Cl)Cl)n1	0.06	0.31
CCCc1cc(=O)oc2c(C)c(OCC(=O)NCc3ccccn3)ccc12	0.06	1.9
CCNC(=S)NNC(=O)c1ccccc1OC(F)F	0.18	0.92
CCNc1sc(S(C)(=O)=O)nc1S(=O)(=O)c1ccc(Cl)cc1	0.54	0.53
C=CCSc1nc(C)cc(C(=O)OCC)c1C#N	0.08	-0.05
COc1cc(/C=N/Nc2nc(Nc3ccccc3)nc(N3CCCCC3)n2)ccc1OCC(=O)O	0.24	-0.16
O=c1[nH][nH]c(C(F)(F)F)c1/C=N/N1CCOCC1	0.39	-0.84
CCOc1ccccc1C(=O)N1CCN=C1SCc1cccnc1	0.67	-0.75
CC(C)Cc1csc(NC(=O)C(C)C)c1C(=O)O	1	0.19
CC1=C(C(=O)Nc2ccccc2)C(c2cccnc2)n2ncnc2N1 (stereo not given)	0.58	0.31
CCCC1CC(C)(c2csc(Nc3ccc(OCC)cc3)n2)OC1=O (stereo not given)	1.5	-0.74
CN(C)c1ccc(NC(=O)c2ccc3c(c2)nnn3C)cc1	1.9	-2.1
Cc1cc(C(=O)Cn2nnc3ccccc3c2=O)c(C)n1Cc1cccs1	2.3	-1.9
COc1ccc(CN2[C@@H](CC(C)=O)c3cc(C(F)(F)F)ccc3S2(=O)=O)cc1	0.09	1.8
CSc1nc2ccc3nc(NC(=O)c4ccc(C)cc4)sc3c2s1	0.66	0.44
